HTT prom inh: HTT promoter inhibition | HEK293 HTT promoter firefly luciferase reporter (activity 0% = vehicle and -100% = no light), 24 h | Potency, µM (titrated, usually from 57.5 µM), for the others: at the top dose activity change, negative = inhibition, actives largely listed as inhibitors | 0.93% of 48,000 active; active means well fitted inhibition curve with a large enough effect; inconclusive means small, poorly fitted or top-dose-only effect; inactive means no such curve, though single readings can be large or run the other way; further: nearly all actives have a fitted effect of over 50% in size
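HEK293 Fluc reporter, 2,500 cells/well, 24 h pre-culture; cpds up to 57.5 uM final, 24 h 37 degrees C; Dual-Glo, 10 min RT; normalized vehicle = 0%, zero RLU = -100%.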
PMP22 txn: modulators of PMP22 gene transcription in S16 Schwann cells | S16 Pmp22-F2sN Schwann cells (luciferase reporters placed in the Pmp22 gene), FLuc/NLuc coincidence luminescence, 24 h | Potency, µM (doses to about 57.5 µM), without a hit: at the top dose activity change, negative = inhibition, usual class: inhibitors | 2% of 43,000 active | AID 1508649; active = clear falling dose curves in both reporters; inconclusive = both reporters move, but less clearly or upward; inactive = either reporter flat; the % is the NLuc reporter signal; further: on the % scale 0 is the no-effect control and ±100 the full control effect; some results filed as inactive show a strong effect at the top dose
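qHTS, 1536-well. Cells seeded, compounds added by pin tool, 24 h 37C. Nano-Glo reagent 1 (lysis/FLuc), 10 min RT, read; Stop&Glo, 10 min RT, read NLuc.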
* = called active by the depositor; & = joins results of further samples; [ ] = another dose, or the depositor's remark. Potency means the concentration at half of the fitted maximal effect. These rows are one share of the data, so the mix of outcomes need not match the whole.

O=S(=O)(c1cccc2cnccc12)N1CCCNCC1 was read as HTT prom inh -1%&8%.
c1ccc(CC2=NCCN2)cc1 was read as HTT prom inh 18%.
For CN[C@H]1[C@@H](O)[C@@H]2O[C@@H]3O[C@H](C)CC(=O)[C@]3(O)O[C@@H]2[C@@H](NC)[C@H]1O the results were HTT prom inh inconclusive.
C[C@@H](N)C1CCC(C(=O)Nc2ccncc2)CC1 (stereo partly drawn) was read as HTT prom inh -10%.
Nc1ncnc2c1ncn2Cc1c(F)cccc1Cl was read as HTT prom inh -5%.
CCCNC(=O)C1CCC(Cn2c(=O)c3sccc3n(CC(=O)NCc3ccccc3)c2=O)CC1 (stereo not drawn) was read as HTT prom inh -8% and PMP22 txn 8%.
`COc1cc2c(Oc3ccc(NC(=O)C4(C(=O)Nc5ccc(F)cc5)CC4)cc3F)ccnc2cc1OCCCN1CCOCC1` gave HTT prom inh inconclusive.
`O=C(Nc1ncc(SCCN2CCCC2)s1)[C@]1(c2ccc(S(=O)(=O)C3CC3)cc2)C[C@@H]1C1CCCCC1` gave HTT prom inh -12%.
For C1CCC(C(CC2CCCCN2)C2CCCCC2)CC1 (stereo not drawn) the results were HTT prom inh inconclusive.
Screening Cn1c(=O)c2c(ncn2CC2OCCO2)n(C)c1=O returned HTT prom inh -2%.
Screening CCN1CCN(CCCNC(=O)c2cc3c(s2)-c2c(C)cccc2OC3)CC1 returned HTT prom inh -21% and PMP22 txn inconclusive.
CN(C)CCN1CCN(c2cccc(Cl)c2)C1=O was read as HTT prom inh 1%.
Screening NC(=O)c1cccc(-c2cc(Nc3ccc(OC(F)(F)F)cc3)ncn2)c1 returned HTT prom inh -13%.
For CCOc1ccccc1C(N)=O the results were HTT prom inh 8%.
For Cc1c(C(=O)NCCO)[n+](=O)c2ccccc2n1[O-] the results were HTT prom inh 8%.
Cc1nc2ccccn2c(=O)c1CCN1CCC(C(=O)c2ccc(F)cc2)CC1 was read as HTT prom inh -8%.
Screening Nc1c(I)cc(I)c(C(=O)N(CCC(=O)O)c2ccccc2)c1I returned HTT prom inh -5%.
COC(=O)C1=C(C)NC(C)=C(C(=O)OCCc2ccc(N3CCN(C(c4ccccc4)c4ccccc4)CC3)cc2)C1c1cccc([N+](=O)[O-])c1 (stereo not drawn) was read as HTT prom inh -5%.
For COc1ccc(CNC(=O)C2CCCN(c3nnc(C)c4c(C)n(-c5ccc(C)cc5)nc34)C2)cc1 (stereo not drawn) the results were HTT prom inh 1% and PMP22 txn 17µM*.
`CCC1Nc2cc(Cl)c(S(N)(=O)=O)cc2S(=O)(=O)N1` (stereo not drawn) gave HTT prom inh -6%.
`CN1CCN(CCOc2cc(OC3CCOCC3)c3c(Nc4c(Cl)ccc5c4OCO5)ncnc3c2)CC1` gave HTT prom inh -3%.
`CNC(=O)CN1CCC(Oc2cc3c(Nc4cccc(Cl)c4F)ncnc3cc2OC)CC1` gave HTT prom inh inconclusive.
COc1ccc(C=CC(=O)Nc2ccccc2C(=O)O)cc1OC was read as HTT prom inh inconclusive.
Screening O=C(O)CNC(=O)c1ccccc1I returned HTT prom inh 1%.
Cc1ccc(C)c(NC(=O)Cn2cc(C(=O)c3ccco3)c3ccccc32)c1 was read as HTT prom inh -58% and PMP22 txn inconclusive.
For COc1ccc(C(=O)CC(=O)c2ccc(C(C)(C)C)cc2)cc1 the results were HTT prom inh -6%&-3%.
Screening Cn1c(=O)c2[nH]c(Br)nc2n(C)c1=O returned HTT prom inh 6%.
CCn1cc(-c2ccnc3[nH]c(-c4cccc(CN(C)C)c4)cc23)c(-c2ccc(NC(=O)N(C)C)cc2)n1 was read as HTT prom inh inconclusive.
O=C(NCCc1c[nH]c2ccccc12)c1cccnc1 was read as HTT prom inh 22%.
Cc1cc(NS(=O)(=O)c2ccc(N)cc2)nc(C)n1 was read as HTT prom inh 1%.
Cn1cc(-c2ccc3nnc(C(F)(F)c4ccc5ncccc5c4)n3n2)cn1 was read as HTT prom inh 3%.
For CN(C)[C@@H](CCOc1cccc2ccccc12)c1ccccc1 the results were HTT prom inh -22%&-19%.
`CN(C)CC(=O)N1CCC(c2ccc(NC(=O)c3ncc(C#N)[nH]3)c(C3=CCCCC3)c2)CC1` gave HTT prom inh -24%.
CC(C)C[C@@H](C(=O)N[C@H](C(=O)OC1CCCC1)c1ccccc1)[C@H](O)C(=O)NO was read as HTT prom inh inconclusive.
COc1cc2c(cc1OC)C(=O)CC2 was read as HTT prom inh 29%.
CCn1c(C(=O)N(C2CC2)C2CC2)cc2c3c(ncn3C)c(Nc3cc(C)n(C)n3)nc21 was read as HTT prom inh -11%.
`O=C(Cc1ccc(-c2ccc(OCCN3CCOCC3)cc2)cn1)NCc1ccccc1` gave HTT prom inh inconclusive.
For CC(=O)c1ccc2c(c1)N(CCCN(C)C)c1ccccc1S2 the results were HTT prom inh -17%.
`O=C(Nc1ccc(OC(F)(F)F)cc1)c1sccc1NCc1ccnc2ccccc12` gave HTT prom inh 2%.
For COc1cc(C(=O)OC(COCCC(C)C)CN2CCOCC2)cc(OC)c1OC (stereo not drawn) the results were HTT prom inh 1%.

Pulled one by one from above (two):
`CNC(=O)CN1CCC(Oc2cc3c(Nc4cccc(Cl)c4F)ncnc3cc2OC)CC1` gave HTT prom inh inconclusive.
COc1cc2c(cc1OC)C(=O)CC2 was read as HTT prom inh 29%.

The listing picks up with the four entries that preceded the break.
`O=C(Cc1ccc(-c2ccc(OCCN3CCOCC3)cc2)cn1)NCc1ccccc1` gave HTT prom inh inconclusive.
For CC(=O)c1ccc2c(c1)N(CCCN(C)C)c1ccccc1S2 the results were HTT prom inh -17%.
`O=C(Nc1ccc(OC(F)(F)F)cc1)c1sccc1NCc1ccnc2ccccc12` gave HTT prom inh 2%.
For COc1cc(C(=O)OC(COCCC(C)C)CN2CCOCC2)cc(OC)c1OC (stereo not drawn) the results were HTT prom inh 1%.
Screening COc1cc2c(cc1OC)C(=O)C(CC1CCN(Cc3ccccc3)CC1)C2 (stereo not drawn) returned HTT prom inh 0%.
`CCCn1cnc2c1c(=O)n(CCCCC(C)=O)c(=O)n2C` gave HTT prom inh -1%.
For C[C@@H]1COC(Nc2ccc3ncnc(Nc4ccc(OCc5nccs5)c(Cl)c4)c3c2)=N1 the results were HTT prom inh inconclusive.
`CC(C)Nc1cc(C(F)(F)F)cc2nc(NC(=O)c3cccnc3)nn12` gave HTT prom inh 5%.
For COc1ccc(-c2cc3c(C)nc(N)nc3n(C3CCC(OCCO)CC3)c2=O)cn1 (stereo not drawn) the results were HTT prom inh inconclusive.
For O=C(CS(=O)Cc1ccco1)NCC=CCOc1cc(CN2CCCCC2)ccn1 (stereo not drawn) the results were HTT prom inh 37%[activator].
For O=C(c1ccc(C(=O)N2CCC(N3CCCC3)CC2)c(Nc2ccccc2)c1)N1CCC(N2CCCC2)CC1 the results were HTT prom inh 6%.
`C[C@]12CCC(=O)C=C1CC[C@@H]1[C@@H]2CC[C@@]2(C)[C@H]1CC[C@]2(O)C(=O)CO` gave HTT prom inh -3%.
`CCOc1ccc(C(=O)OCCN(CC)CC)cc1` gave HTT prom inh 6%.
Cc1ccc(S(=O)(=O)NC(=O)NC2CCCCCCC2)cc1 was read as HTT prom inh 7%.
Screening Oc1ccc(/C=C/c2cc(O)cc(O)c2)cc1 returned HTT prom inh 7%.
`COc1cc(NS(=O)(=O)c2ccc(N)cc2)nc(C)n1` gave HTT prom inh 5%.
O=c1[nH]c2cc(C(F)(F)F)c(N3CCOCC3)cc2n(CP(=O)(O)O)c1=O was read as HTT prom inh -8%.
CC1(C)O[C@H]2CC(=O)OC[C@]23[C@H]2CC[C@@]4(C)[C@H](c5ccoc5)OC(=O)[C@H]5O[C@]54[C@]2(C)C(=O)C[C@@H]13 was read as HTT prom inh 24%&6%.
Screening CC[N+](C)(CC)CCOC(=O)C(O)(c1ccccc1)C1CCCCC1 (stereo not drawn) returned HTT prom inh 12%.
`Cc1ccc(F)c(NC(=O)Nc2ccc(-c3cccc4[nH]nc(N)c34)cc2)c1` gave HTT prom inh 23%.
For O=C(c1ccc(F)cc1)C1CCN(CCn2c(=O)[nH]c3ccccc3c2=O)CC1 the results were HTT prom inh -3%&-7%.
`NC(N)=NCCC[C@H](N)C(=O)O` gave HTT prom inh 10%[6.01 µM].
Cc1nc(-c2ccc(Cl)cc2)oc1COC(C)(C)C(=O)O was read as HTT prom inh -1%.
For Cc1c(NC(=O)OC[C@@H]2COCCN2)cn2ncnc(Nc3ccc4c(cnn4Cc4cccc(F)c4)c3)c12 the results were HTT prom inh -24%.
`CC1CCN(c2cc(N3CCN(C)CC3)ccc2NC(=O)c2cc(C#N)c[nH]2)CC1` gave HTT prom inh -7%.
CC#CCn1c(N2CCC[C@@H](N)C2)nc2c1c(=O)n(Cc1nc(C)c3ccccc3n1)c(=O)n2C was read as HTT prom inh -3%.
For CCN(CC)CCOC(=O)C1(c2ccccc2)CCCC1 the results were HTT prom inh 5%.
For CCOc1ncc(F)c(=O)[nH]1 the results were HTT prom inh 1%.
C[C@@H](Oc1cc(-n2cnc3ccc(CN4CCN(C)CC4)cc32)sc1C(N)=O)c1ccccc1C(F)(F)F was read as HTT prom inh inconclusive.
`O=C(NCc1ccco1)c1ccc2c(c1)N(Cc1cccc(Cl)c1)C(=O)c1ccccc1S2=O` (stereo not drawn) gave HTT prom inh -40% and PMP22 txn inconclusive.
For CC(COc1ccccc1)NC(C)C(O)c1ccc(O)cc1 (stereo not drawn) the results were HTT prom inh 6%.
COc1ccc(CCNc2nc(SCc3ccccc3Cl)nc3ccccc23)cc1OC was read as HTT prom inh -5% and PMP22 txn inconclusive.
For COc1ccccc1N1CCN(CCCNc2cc(=O)n(C)c(=O)n2C)CC1 the results were HTT prom inh 5%.
`c1ccc(CN(CC2=NCCN2)c2ccccc2)cc1` gave HTT prom inh 4%.
For O=C1CC2(CCCC2)CC(=O)N1 the results were HTT prom inh 12%.
`Cc1c(I)c(=O)n(-c2ccccc2)n1C` gave HTT prom inh -6%.
For CSc1cccc(Nc2ncc3cc(-c4c(Cl)cccc4Cl)c(=O)n(C)c3n2)c1 the results were HTT prom inh 0%.
O=C(O)Cc1ccc2c(c1)C(=O)c1ccccc1CO2 was read as HTT prom inh 19%.
CN(C)CCOC(C)(c1ccccc1)c1ccccn1 (stereo not drawn) was read as HTT prom inh 14%.
Screening CN1CCOC(c2ccccc2)c2ccccc2C1 (stereo not drawn) returned HTT prom inh 1%.

Molecules from the list above containing an aryl thioether with sulfur outside any ring:
`O=C(Nc1ncc(SCCN2CCCC2)s1)[C@]1(c2ccc(S(=O)(=O)C3CC3)cc2)C[C@@H]1C1CCCCC1` gave HTT prom inh -12%.
COc1ccc(CCNc2nc(SCc3ccccc3Cl)nc3ccccc23)cc1OC was read as HTT prom inh -5% and PMP22 txn inconclusive.
For CSc1cccc(Nc2ncc3cc(-c4c(Cl)cccc4Cl)c(=O)n(C)c3n2)c1 the results were HTT prom inh 0%.

Screens deposited in PubChem BioAssay by National Center for Advancing Translational Sciences (NCATS).
